From PubChem BioAssay
TRPML1 ag – agonists of human TRPML1 channel. activation, % (no concentration beside the values). 410,000 compounds, 0.12% hits. Q9GZU1. TRPML1-expressing cells, Ca2+ dye fluorescence, FDSS; host cell line not named in the record; reference of the full effect not given here; in the data active = activation above about 50%; inconclusive = about 30% to 50%; inactive = below about 30%; also: 0% is about no effect; the text of the record puts the active cut at 80%
Target sequence (Q9GZU1 whole entry, looked up): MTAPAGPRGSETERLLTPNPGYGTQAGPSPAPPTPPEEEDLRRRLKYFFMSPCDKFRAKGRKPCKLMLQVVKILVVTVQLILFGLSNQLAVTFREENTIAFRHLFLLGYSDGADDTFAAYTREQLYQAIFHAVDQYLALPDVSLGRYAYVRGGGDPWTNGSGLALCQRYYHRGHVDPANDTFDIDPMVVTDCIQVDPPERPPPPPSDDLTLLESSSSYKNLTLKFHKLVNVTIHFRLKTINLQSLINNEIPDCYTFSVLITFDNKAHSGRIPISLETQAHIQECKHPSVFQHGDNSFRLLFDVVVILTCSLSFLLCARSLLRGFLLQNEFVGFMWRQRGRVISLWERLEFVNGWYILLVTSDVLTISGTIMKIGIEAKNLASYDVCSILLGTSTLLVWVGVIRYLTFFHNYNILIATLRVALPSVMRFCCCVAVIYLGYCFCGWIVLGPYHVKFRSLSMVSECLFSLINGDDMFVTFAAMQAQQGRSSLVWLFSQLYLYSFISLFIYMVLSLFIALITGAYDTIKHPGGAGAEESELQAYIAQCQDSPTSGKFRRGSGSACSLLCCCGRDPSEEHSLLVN
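Tet-induced TRPML1-DL cells, 1,500 per well, cultured overnight, were loaded with a no-wash Ca2+ dye for 45–90 min. Calcium fluorescence was recorded on the FDSS for 110 s after compound addition, before the EC80 agonist (4 uM 54-4) was added.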
TRPML1 blocker – human mucolipin-1 channel inhibition | 390,000 compounds, 0.02% hits | activity change, negative = inhibition, % (test concentration not listed) | Q9GZU1 | TRPML1-inducible cells, Ca2+ dye fluorescence, FDSS; active compounds read low; inhibition of EC80 agonist-evoked calcium signal; in the data active means activity change below about -50%; inconclusive means about -30% to -50%; inactive means above about -30%;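 also: stimulus is agonist 54-4 at its EC80 concentration; % is scaled to controls: 0 for no effect and ±100 for the full control effect; compound concentration not given in the record; the text of the record puts the active cut at -80%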
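TRPML1-DL cells, Tet-induced overnight (~16 h, 37 °C) at 1,500 cells/well, were loaded with Ca8 no-wash dye plus quencher for 45-90 min at room temperature. Compounds were pinned during FDSS kinetic reading; agonist 54-4 at EC80 (4 uM final) then added.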
PINK1 expr mod – modulators of PINK1 expression; AID 624263; PINK1 immunofluorescence, high-content cytometry, 24 h; 410,000 compounds, 0.2% hits; Potency, µM (highest dose often 76.6 µM), for inactives: at the top dose activation (PINK1 increase), actives largely listed as activators; active = well fitted activation curve with a large enough effect; inconclusive = small, poorly fitted or top-dose-only effect; inactive = flat fitted curve, though single readings scatter; cell line not stated here;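 also: potency is read from the fitted curve at half-maximal effect; % of control where 0% means no effect; nearly all actives have a fitted effect of over 65% in size; a mitochondrial uncoupler was the plate control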
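PINK1 protein, normally rapidly degraded, was detected by immunofluorescence after 24 hour compound treatment of a stable cell line. Titration data (5 concentrations) came from laser-scanning cytometry, with CCCP-treated wells as controls.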
Six1-Eya2 inh – Six1/Eya2 interaction inhibition. AlphaScreen GST-Six1/His-Eya2 binding, biochemical; active compounds read low; control for the full effect not named in the record. 360,000 compounds, 0.56% hits. activity change, % (test concentration not listed). AID 651725. Q15475+O00167; in the data active = activity change below about -65%; inconclusive = about -30% to -65%; inactive = above about -30%; also: % is scaled to controls: 0 for no effect and ±100 for the full control effect
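AlphaScreen with GST-Six1 and His-Eya2 (5X mix: 250 nM and 500 nM), glutathione donor and nickel acceptor beads; buffer 50 mM Tris pH 8.0, 300 mM NaCl, 1 mM TCEP; 1 h at 37 C in the dark.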
D2 ag – activates the human D2 dopamine receptor | P14416 | activation, % (test concentration not listed) | DiscoveRx PathHunter D2 beta-arrestin, luminescence, 90 min; 100% = 57 uM dopamine signal | AID 624465 | 360,000 compounds, 0.084% hits; in the data active = activation above about 40%; inconclusive = about 15% to 40%; inactive = below about 15%; also: compound concentration not given in the record; the text of the record calls up to 30% inactive
Target sequence (P14416 whole entry, looked up): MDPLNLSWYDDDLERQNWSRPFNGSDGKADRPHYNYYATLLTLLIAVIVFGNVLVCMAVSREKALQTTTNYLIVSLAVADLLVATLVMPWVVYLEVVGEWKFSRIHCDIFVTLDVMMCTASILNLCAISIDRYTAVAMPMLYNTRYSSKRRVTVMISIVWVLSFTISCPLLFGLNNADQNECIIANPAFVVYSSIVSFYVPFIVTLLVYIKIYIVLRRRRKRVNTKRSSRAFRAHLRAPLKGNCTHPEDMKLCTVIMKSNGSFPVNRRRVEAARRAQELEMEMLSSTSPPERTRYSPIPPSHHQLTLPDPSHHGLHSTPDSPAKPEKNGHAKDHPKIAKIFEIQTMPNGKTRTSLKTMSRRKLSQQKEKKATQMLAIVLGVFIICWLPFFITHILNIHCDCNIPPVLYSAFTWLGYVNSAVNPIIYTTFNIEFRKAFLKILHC
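DiscoveRx PathHunter D2 beta-arrestin cells (2,100/well) attached overnight, then compound-stimulated 90 min at 37 C in HBSS/10 mM HEPES/0.1% Tween-20 buffer; beta-galactosidase complementation read by luminescence after 1 h at ambient temperature. Dopamine 57 uM final (EC100) as control.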
D2 PAM – positive allosteric modulators of human D2 dopamine receptor; AID 624464; P14416; DiscoveRx D2 beta-arrestin cells, luminescence, 90 min; 100% = 57 uM dopamine signal; potentiation, % (concentration not given with the values); 360,000 compounds, 0.23% hits; active = potentiation of 50% or more; inconclusive = 30% to 50%; inactive = 30% or less;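 also: tested on top of an EC20 dose of dopamine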
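PathHunter beta-arrestin assay in DiscoveRx D2 cells. Compounds were added with an EC20 of dopamine (50 nM final) for 90 min at 37 deg C. Luminescence was read 1 h after detection reagent, with 57 uM dopamine as the EC100 control.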
Active calls of the source: *; ? = inconclusive; / = no result given; & = joins results of further samples; [ ] = dose if it differs, or a comment.

Values run as follows: TRPML1 ag, TRPML1 blocker, PINK1 expr mod, Six1-Eya2 inh, D2 ag, D2 PAM
Cc1nc2ccc(NC(=O)c3ccc(Cl)c(S(=O)(=O)N(C)c4ccccc4)c3)cc2s1
  16.5, -4.2, 4.3%, ?, 2.0, -5.3
C/C(Cc1ccccc1)=N\NC(=O)CNC(=O)c1cccc(Br)c1
  1.4, -15.5, -2.0%, 11.0, -1.5, -4.0
CC(=O)c1c(C)n([O-])c2cc(F)c(F)cc2[n+]1=O
  0.2, 12.7, 2.6%, 11.3, 1.1, 18.4
O=C(NCC1OCCc2ccccc21)c1cc(COc2ccc(F)cc2Cl)on1 (stereo unspecified)
  4.2, 1.5, 2.4%, 1.7, -2.9, -9.3
CN(Cc1cnn(C)c1)C(=O)CC1C(=O)NCCN1Cc1cccc(Oc2ccccc2)c1 (stereo unspecified)
  1.1, -7.2, 1.0%, 4.9, 0.8, 2.2
Cc1nc(N)nc(N)c1-c1ccc([N+](=O)[O-])cc1
  7.2, -3.5, -4.0%, 6.4, 2.8, -14.5
COc1ccc2c(c1)OCC(O)(c1ccccc1)C2=O (stereo unspecified)
  -0.4, 6.6, 1.2%, 2.1, -2.8, -4.9
CN1CCN(c2nc(-c3ccc(C(C)(C)C)cc3)nc3ccccc23)CC1
  1.7, 36.3, -0.1%, -8.2, -6.5, -20.9
CCOc1ccc(OCc2ccc(C(=O)NC(C)(C)C)o2)cc1
  3.1, -3.8, -0.3%, 8.6, 6.4, -3.7
O=C1NC(=O)C(c2ccccc2)(c2ccccc2)N1S(=O)(=O)c1ccccc1
  -0.2, -10.4, 0.4%, 0.6, 1.9, -0.2
Cc1cc(C)c2nc(NCCCNC(=S)NCCCN(C)C)c(C#N)cc2c1
  1.1, -9.1, -1.5%, 18.8, -4.9, -12.4
O=C(CN1C(=O)CC(c2ccccc2)S(=O)(=O)c2ccccc21)N1CCCCC1 (stereo unspecified)
  0.0, 8.0, -0.7%, 7.7, -1.8, -0.3
COc1ccc(C(C)NC(=O)C2CCN(CCCc3ccccc3)CC2)cc1OC (stereo unspecified)
  0.8, /, -0.8%, 25.0, -0.6, -15.7
Cc1cccc(NC(=O)C(=O)N/N=C/c2ccncc2)c1
  0.3, 0.2, 0.2%, -10.2, 1.7, -3.9
CCOC(=O)c1nn(-c2ccc(F)cc2)c(C)c1C(C)=O
  5.1, -6.1, -1.5%, 9.1, -3.5, 0.8
N#Cc1cc2ccccc2nc1SCC(=O)Nc1ccc(S(=O)(=O)N2CCCC2)cc1
  11.7, 2.5, 3.4%[38.3 µM], -3.9, -1.6&4.3, 8.6
Cc1ccc(NNC(=O)c2cc(C)on2)c(C)c1
  -0.1, -11.4, 2.8%, -18.7, 2.1, -2.1
Cc1nc2ccccc2c(=O)n1/N=C/c1ccccc1Cl
  1.4, -15.1, 0.4%, -0.6, -5.4, -9.1
O=C(CCOc1ccccc1)Nc1ccccc1
  0.1, 19.4, 0.3%, 2.1, 0.8, -0.9
O=C(c1ccccc1)c1ccc(N2CCN(C(=O)c3ccc(F)cc3F)CC2)c(F)c1
  0.4, 6.4, -0.4%, -3.5, -0.6, -11.9
c1ccc(N=C(c2cccs2)N2CCOCC2)cc1
  -0.5, 9.3, 1.4%, 10.3, -16.5, -18.3
O=C(COC(=O)c1ccc(Cl)c(S(=O)(=O)NCc2ccccc2)c1)NCC1CCCO1 (stereo unspecified)
  3.1, 18.8, -1.7%, 0.7, -3.3, -12.2
CC1=Nn2c(nc(-c3ccccc3)c2-c2ccccc2)N(CC(N)=O)C(=O)C1
  1.9, 17.5, -2.0%, -1.0, -1.3, -17.5
CC(C)Oc1ccc(C2CC(=O)N(c3ccccc3)C2=O)cc1 (stereo unspecified)
  -0.9, -24.4, -1.1%, -3.0, -1.3, 22.1
O=C(O)CN1C(=O)/C(=C\c2cc(Br)ccc2OCc2ccc(F)cc2)SC1=S
  2.1, -10.5, -1.2%, -2.3, 4.0, -4.9
Cn1cccc1/C=C1\SC(=O)N(c2ccccc2)C1=O
  0.0, -8.8, 0.9%, -4.2, -5.1, -13.6
Cc1ccc(C)c(CSc2cn(CC(=O)N3CCCCCC3)c3ccccc23)c1
  -0.3, 18.0, -0.1%, /, /, /
CC(=O)c1cccc(NC(=O)c2ccc3ccccc3c2)c1
  -0.2, 20.3, -1.4%, 0.5, 0.5, 2.1
Cc1ccc(S(=O)(=O)N2CCCCC2)cc1C(=O)NCc1ccccn1
  -0.4, 15.0, 1.6%, 4.7, -3.0, -9.4
CCOC(=O)N1CCN(CC(O)c2ccc3cc[nH]c3c2)CC1 (stereo unspecified)
  -0.8, 5.2, 0.8%, 5.4, -2.3, -4.2

Entries of single compounds from above:
`CC1=Nn2c(nc(-c3ccccc3)c2-c2ccccc2)N(CC(N)=O)C(=O)C1` is entered as TRPML1 ag = 1.9; TRPML1 blocker = 17.5; PINK1 expr mod = -2.0%; Six1-Eya2 inh = -1.0; D2 ag = -1.3; D2 PAM = -17.5
`O=C(O)CN1C(=O)/C(=C\c2cc(Br)ccc2OCc2ccc(F)cc2)SC1=S` is entered as TRPML1 ag = 2.1; TRPML1 blocker = -10.5; PINK1 expr mod = -1.2%; Six1-Eya2 inh = -2.3; D2 ag = 4.0; D2 PAM = -4.9

Going on with the list:
Values run as follows: TRPML1 ag, TRPML1 blocker, PINK1 expr mod, Six1-Eya2 inh, D2 ag, D2 PAM
O=C(CSc1nc2cc(Cl)ccc2o1)c1cccs1
  -0.9, 22.3, -1.6%, 33.5, 0.0, 4.8
COc1ccccc1-n1c(SCc2cc(=O)oc3cc(O)ccc23)nc2ccccc2c1=O
  -0.8, 15.4, 0.1%, -13.1, -1.8, 5.5
COCCNCC(=O)NCC12CC3CC(CC(C3)C1)C2
  -0.2, 6.8, 1.3%, 11.5, -1.1, -2.8
CCC(C)(C)NC(=O)C(c1ccccc1Cl)N(C(=O)CCC(=O)Nc1cc(C)on1)c1ccc(NC(C)=O)cc1 (stereo unspecified)
  0.5, 10.8, 8.5%, 21.2, -5.6, -4.4
O=P(O)(OCc1ccccc1)OCc1ccccc1
  -0.9, 2.5, 0.4%, -2.1, -6.0, -8.8
COc1ccccc1NC1=CC(=O)CC(c2ccccc2)C1 (stereo unspecified)
  1.0, -7.6, 8.8%, 4.6, 0.1, 9.2
COc1ccc(-c2nc3n(n2)C(=O)CC(c2ccco2)S3)cc1 (stereo unspecified)
  1.2, -5.4, 6.2%[38.3 µM], -10.1, 1.6, 9.4
COc1ccc(C2=NOC(Cn3nc(-c4ccccc4)cc3C(=O)NCc3ccco3)C2)cc1 (stereo unspecified)
  0.3, 11.3, 5.1%, 3.5, 3.3, 5.0
CO[C@H]1/C=C/O[C@@]2(C)Oc3c(C)c(O)c4c(O)c(c5c(c4c3C2=O)NC2(CCN(CC(C)C)CC2)N=5)=NC(=O)/C(C)=C\C=C\[C@H](C)[C@H](O)[C@@H](C)[C@@H](O)[C@@H](C)[C@H](OC(C)=O)[C@@H]1C
  -1.0, 24.6, 3.8%, -6.5, -1.4, -7.2
CC(=O)OCC1(C)CN(c2ccccc2)N(C(C)=O)C1=O (stereo unspecified)
  -0.5, 34.0, 0.2%, 5.4, 0.8, -8.9
O=C(O)CC(C(=O)O)N1C(=O)/C(=C/c2ccc(-c3nc4ccccc4s3)o2)SC1=S (stereo unspecified)
  1.6, -14.9, 0.2%, -77.2*, -4.8, -36.2
Clc1ccc(CSc2nnc(-c3sccc3-n3cccc3)o2)cc1
  2.8, -2.1, 4.0%, 6.9, -2.3, -11.4
COc1ccc(C(=O)N(c2ccccn2)C2CCCCC2)c(OC)c1
  -1.1, 10.3, 3.6%, 11.4, 8.8, -1.0
Cc1cc(OC(C)C(=O)NCCCN2CCOCC2)c2c(C)cc(=O)oc2c1 (stereo unspecified)
  1.2, 11.2, 0.2%, 2.1, -0.4, -2.2
CCCCNC(=O)C[C@@H]1C[C@@]2(C(=O)OC)CCCCC=C2N(Cc2cccc3ccccc23)C1=O
  -0.2, /, 0.5%, 2.2, /, /

Continuation.
mol,TRPML1 ag,TRPML1 blocker,PINK1 expr mod,Six1-Eya2 inh,D2 ag,D2 PAM
C/C(Cn1cnc([N+](=O)[O-])n1)=N\NC(=O)c1ccc(O)cc1O,-0.6,-1.2,0.7%,-21.7,-4.3,0.5
Cc1c(C(=O)N2CCN(c3ccccn3)CC2)oc2c1C(=O)CC(C)(C)C2,1.7,-7.4,0.9%,1.5,9.3,10.0
CCC(C)C1Nc2ccc(C(=O)NCCc3ccc(OC)c(OC)c3)cc2NC1=O (stereo unspecified),-1.5,21.6,9.4%,7.2,-5.3,2.6
CC(Sc1nnc(-c2ccncc2)n1C)C(=O)NCC(=O)Nc1ccc(F)c(F)c1F (stereo unspecified),-0.8,-16.5,1.5%,-0.8,-0.8,-5.7
CCOC(=O)C(C)NC(=O)c1c2c(nc3ccccc13)C(=O)N(C1CCCCC1)C2 (stereo unspecified),0.1,-2.9,1.7%,/,/,/
O=C1OCCC1Sc1nnc(-c2ccco2)n1-c1ccccc1 (stereo unspecified),-0.6,9.9,4.1%,-3.9,1.0,7.9
CC1C(=O)Nc2ccccc2N1C(=O)c1cccc(C(F)(F)F)c1 (stereo unspecified),-0.5,9.6,7.9%,-4.7,-6.6,-4.8
CCOC(=O)c1c(N)n(C2CC(C)(C)NC(C)(C)C2)c2nc3ccccc3nc12,5.2,-8.6,1.9%[38.3 µM],-2.0,-1.6,-12.2
CCCCn1c(N)c(N(CC(C)C)C(=O)c2ccc(S(=O)(=O)N(CC)c3ccccc3)cc2)c(=O)[nH]c1=O,0.5,-11.7,3.8%,-6.1,-4.0,-5.0
NS(=O)(=O)c1cccnc1Nc1cccc(Cl)c1Cl,0.1,2.9,2.1%,-7.0,-2.3,-30.2
O=C1C2CCCN2C(c2cccc(Br)c2)N1c1ccc(F)cc1 (stereo unspecified),0.7,11.8,1.9%,2.9,0.1,-2.3
O=[N+]([O-])c1cccnc1Nc1ccc(Cl)cc1,0.0,-5.3,1.9%,?,-0.7,-3.9
O=C(NCc1cccs1)c1cc2ccccc2o1,-0.4,-24.3,-2.7%,4.6,-2.9,-2.7
CC(C)CNS(=O)(=O)c1cc(C(=O)OCC(=O)N(C)C2CCS(=O)(=O)C2)c(Cl)cc1Cl (stereo unspecified),2.7,14.9,0.0%,-0.9,0.9,7.2
COc1ccc(N2CCN(C(=O)c3ccc4[nH]c(C)c(C)c4c3)CC2)cc1,-0.5,-1.2,0.0%,?,2.3,-10.7
CCCCOC(=O)Nc1nnc(-c2ccccc2OC)s1,0.0,-11.3,-0.4%,-14.9,-5.4,-12.6

Compounds as they come, and some 1% of all compounds hit somewhere here.
